# VDR inhibitor = Inhibitors of the vitamin D receptor (VDR): qHTS. Potency, µM, for inactives: max response, negative = inhibition, most hits filed as inhibitors. VDR-SRC2-3 peptide fluorescence polarization, 2 h. 0.93% of 400,000 active; active = well fitted inhibition curve with a large enough effect; inconclusive = small, poorly fitted or top-dose-only effect, or another doubt; inactive = no such curve, though single readings can be large or run the other way; also: series mostly up to about 120 µM
# Target sequence (P11473 whole entry, looked up): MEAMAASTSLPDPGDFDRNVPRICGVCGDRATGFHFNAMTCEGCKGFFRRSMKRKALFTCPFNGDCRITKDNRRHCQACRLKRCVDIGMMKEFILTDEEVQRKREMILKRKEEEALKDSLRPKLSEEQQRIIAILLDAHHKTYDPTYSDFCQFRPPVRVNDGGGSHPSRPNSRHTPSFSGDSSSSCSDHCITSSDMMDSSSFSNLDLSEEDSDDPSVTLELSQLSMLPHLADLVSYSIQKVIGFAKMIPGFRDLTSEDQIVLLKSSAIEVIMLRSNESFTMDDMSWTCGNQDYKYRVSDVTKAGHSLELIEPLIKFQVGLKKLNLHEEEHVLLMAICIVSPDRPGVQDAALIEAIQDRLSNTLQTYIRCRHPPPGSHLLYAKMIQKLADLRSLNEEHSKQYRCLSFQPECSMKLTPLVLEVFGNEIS
#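 Fluorescence polarization assay of small-molecule disruption of VDR binding to coregulator peptide SRC2-3. Compounds and controls pin-transferred, then read after 2 h incubation at ambient room temperature.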
# * = called active by the depositor; ? = inconclusive. % is scaled to controls: 0 for no effect and ±100 for the full control effect; potency is read from the fitted curve at half-maximal effect.
VDR inhibitor	compound
6%	CCCCNC(=O)C1CC(c2cccc([N+](=O)[O-])c2)=NO1 (stereo unspecified)
-2%	CC(=O)Nc1ccc(C(=O)OCC(=O)N(c2ccccc2)C2CCCCC2)cc1
-9%	O=C(CCN1C(=O)/C(=C\c2ccccc2Cl)SC1=S)N1CCN(c2ccccc2)CC1
?	CC(=O)Nc1ccc(S(=O)(=O)N(C#N)c2nc(C)cc(C)n2)cc1
-7%	Cc1ccc(S(=O)(=O)N2CCOCC2)cc1C(=O)NCc1ccc2c(c1)OCO2
15%	COc1ccccc1N(C)S(=O)(=O)c1ccc(C(=O)N(CC(N)=O)C(C)C)cc1
5%	COc1cccc(CNC(=O)c2nn(C)c3c2CS(=O)(=O)c2ccccc2-3)c1
-7%	COc1ccc(S(=O)(=O)Nc2cc([N+](=O)[O-])ccc2OC)cc1
0%	Cc1cc(C)c(NC(=O)C2CC(=O)N(Cc3ccccc3)C2)c(C)c1 (stereo unspecified)
-5%	O=C(COC(=O)Cn1cnc2ccccc21)Nc1ccc(F)c(F)c1
6%	CCOc1cc(C(=O)NCCN2CCOCC2)cc(OCC)c1OCC
-13%	Cc1cccc(C2NC(=O)c3ccccc3N2)c1 (stereo unspecified)
7%	NNc1ncnc2c1cnn2-c1ccccc1
-13%	COc1ccc(S(=O)(=O)N2CN(CCc3ccc(OC)c(OC)c3)c3nc4ccccc4nc32)cc1
6%	CC(=O)c1c(C)n(CCO)c2ccc(O)cc12
17%	CCOc1ccc(NC(=O)CSc2nncc(=O)n2N)cc1
-6%	CC12CC3CC(C1)CC(C(=O)NNC(=O)c1ccncc1)(C3)C2
15%	C/C(=N/NC(=O)CSc1ccccn1)c1ccc([N+](=O)[O-])cc1
-13%	CCc1ccc2oc(=O)cc(CN3CCCCC3C)c2c1 (stereo unspecified)
-4%	COc1cc2c(=O)n(Cc3ccccc3Cl)c(=O)n(CC(=O)Nc3ccccc3)c2cc1OC
-5%	O=C(c1ccncc1)N1CCN(S(=O)(=O)c2ccccc2F)CC1
6%	COc1cccc(CNC(=O)c2cc(=O)[nH]c3ccc(S(=O)(=O)N4CCOCC4)cc23)c1
-18%	CNC(=S)N1CCc2sccc2C1C (stereo unspecified)
-9%	Cc1cccc(-c2nnnn2-c2cccc(C)c2)c1
8%	Cc1cn2c(=O)cc(COC(=O)c3ccc(NC(=O)C(C)Oc4ccccc4)cc3)nc2s1 (stereo unspecified)
-20%	CCOc1ccc(/C=N/Nc2nc(C)cs2)c(O)c1
-6%	CN(CCc1ccccc1)C(=O)c1ccc(NC(=O)Cc2cccc(NC(=O)C3CCN(C(=O)C4CCC4)CC3)c2)cc1
-3%	Cc1ccn2c(Nc3ccc4c(c3)OCO4)c(-c3ccc(Cl)cc3)nc2c1
-1%	O=C(CCC(=O)CCN1CCCCC1)CCN1CCCCC1
-4%	O=[N+]([O-])c1ccc(NNS(=O)(=O)c2cc(Cl)ccc2Cl)nc1

# Three structures from above, arranged by count of non-hydrogen atoms, falling:
VDR inhibitor	compound
-3%	Cc1ccn2c(Nc3ccc4c(c3)OCO4)c(-c3ccc(Cl)cc3)nc2c1
-5%	O=C(c1ccncc1)N1CCN(S(=O)(=O)c2ccccc2F)CC1
17%	CCOc1ccc(NC(=O)CSc2nncc(=O)n2N)cc1

# (continued)
VDR inhibitor	compound
5%	CN(c1ccccc1C(=O)Nc1ccc(F)c(Cl)c1)S(C)(=O)=O
-5%	N#CCSc1nnc(C2CCCCC2)n1Cc1ccccc1
0%	CCOC(=O)C1=C(C)N(C)C(C)=C(C(=O)OCC)C1c1ccncc1
5%	O=C1c2ccsc2SCCN1Cc1cccc(F)c1
10%	CC[C@H](NC(=O)[C@H](CCC(=O)O)NC(=O)[C@H](CCC(=O)O)NC(=O)[C@H](CC(=O)O[S+](=O)([O-])c1cccc2c(NCCN)cccc12)NC(=O)[C@H](CCC(=O)O)NC(=O)[C@H](CC(=O)O)NC(C)=O)C(=O)ON[C@@H](C)C(=O)N[C@@H](CO)C(=O)N[C@@H](CCCCNC(=O)c1ccc(N=Nc2ccc(N(C)C)cc2)cc1)C(N)=O
5%	CCn1cc(CNC(=O)CC2C(=O)NCCN2CC(c2ccccc2)c2ccccc2)cn1 (stereo unspecified)
-12%	CCCN(C(=O)COC(=O)c1[nH]c(C)c(C(=O)OC)c1C)c1c(N)n(Cc2ccccc2)c(=O)[nH]c1=O
1%	COc1ccc(OC)c(C(=O)CSc2nnnn2C)c1
-19%	O=C(NCCN1CCOCC1)c1ccc(F)cc1
0%	CCc1ccccc1N(C)C(=O)c1cc2c(s1)-c1c(C)cccc1OC2
-12%	COCCCNC(=O)c1cc2c(=O)oc3ccc(C)cc3c2s1
-21%	CCN1C(=O)[C@H]2[C@@H](c3ccc(-c4ccc(OC)cc4)cc3)N3CCC[C@@]3(C(=O)OC)[C@H]2C1=O
-10%	COc1cc([N+](=O)[O-])ccc1NC(=S)NNC(=O)CCC(=O)Nc1ccccc1Cl
0%	CCS(=O)(=O)NCCc1cc2ccc(C)cc2[nH]c1=O
?	O=C(c1csnn1)N1CCC2(CCCN(c3cccc(-c4ccccc4)c3)C2)CC1
16%	Cc1cccc[n+]1CCCCCCCCCC[n+]1ccccc1C
9%	O=C(N/N=C/c1ccc([N+](=O)[O-])o1)c1cc(-c2ccc(-c3ccccc3)cc2)nc2ccccc12
-22%	Cn1c(C(=O)OC(C(=O)NCC2CCCO2)c2cccnc2)cc2sccc21 (stereo unspecified)
9%	Cc1nnc(NC(=O)CSc2nccn2Cc2ccc(Cl)cc2)s1
-13%	N#C/C(=C\c1c(Cl)cccc1Cl)c1nc2ccccc2[nH]1
-14%	O=C(CCC(=O)Nc1cccc(Cl)c1)N/N=C/c1cc([N+](=O)[O-])ccc1O
2%	C=CC(COCc1ccccc1)N([C@@H](Cc1ccccc1)C(=O)OC)S(=O)(=O)c1ccccc1Br (stereo partly specified)
6%	COc1ccc(CN(C)C(=O)c2ccc(NS(=O)(=O)c3ccc4[nH]c(=O)[nH]c4c3)cc2)c(OC)c1OC
-13%	CCCOc1ccc(/C(O)=C2/C(=O)C(=O)N(CCCn3ccnc3)C2c2ccco2)cc1 (stereo unspecified)
1%	Cc1noc(NS(=O)(=O)c2ccc(NC(=O)C34CC5CC(C3)CC(n3cnc(Br)n3)(C5)C4)cc2)c1C
13%	Cc1ccc(C)c(N/C=C(\C#N)c2nc3ccccc3o2)c1
-4%	CN1CCN(CCCCOc2cccc3ccccc23)CC1
14%	Cn1c(SCC(=O)N2CCN(Cc3ccccc3)CC2)nnc1-c1ccncc1
-7%	Cc1nn(C)cc1/C=N/NC(=O)c1sc2ccccc2c1Cl
3%	CC12CC(NC(=O)N1c1cccc(C(=O)NCc3ccc4c(c3)OCO4)c1)c1cc(Cl)ccc1O2 (stereo unspecified)

# 3 entries from above, with each value named.
COCCCNC(=O)c1cc2c(=O)oc3ccc(C)cc3c2s1
  VDR inhibitor = -12%

CCN1C(=O)[C@H]2[C@@H](c3ccc(-c4ccc(OC)cc4)cc3)N3CCC[C@@]3(C(=O)OC)[C@H]2C1=O
  VDR inhibitor = -21%

COc1cc([N+](=O)[O-])ccc1NC(=S)NNC(=O)CCC(=O)Nc1ccccc1Cl
  VDR inhibitor = -10%

# Next section:
VDR inhibitor	compound
0%	Cc1ccc2nc(C)c(C(=O)NN=C3CCN(C)CC3)n2c1
-1%	COc1cc(-c2noc(CCCC(=O)NC3CCCCC3)n2)cc(OC)c1OC
10%	CC1CCCCN1C(=O)Cn1c(=O)n(-c2ccc(Cl)cc2)c(=O)c2c3c(sc21)CCC3 (stereo unspecified)
-3%	CCOC(=O)c1ccc(Nc2nnc(C)c3ccccc23)cc1
9%	COc1ccc(S(=O)(=O)N2CCC3(CC2)OCCO3)cc1
-18%	C=CCNC(=O)CN1C2CCCC1CC(NC(=O)c1ccccc1C)C2 (stereo unspecified)
3%	CCc1nn(CC(=O)Nc2ccc(C)cc2C)c(=O)c2cc3sccc3n12
-9%	O=C(O)c1cc(-c2ccc(Cl)cc2)n(-c2ccc(Cl)cc2)n1
13%	CCc1nn2c(=O)cc(COC(=O)c3cccc(NC(=O)c4cccs4)c3)nc2s1
14%	CCS(=O)(=O)c1nc(S(=O)(=O)c2ccc(C)cc2)c(N2CCCC(C)C2)s1 (stereo unspecified)
-7%	Cn1ccnc1SCC(=O)Nc1ccc2c(c1)OCO2
-6%	COc1ccc(S(=O)(=O)N2CCOCC2)cc1C(C)C
-17%	CC(=O)c1cccc(NS(=O)(=O)c2c(C)noc2C)c1
-5%	Cc1cccc(-n2ncc3c(NCc4ccccc4)ncnc32)c1
-18%	Oc1ccc(/C=N/n2c(C3CCCCC3)n[nH]c2=S)c(O)c1
-16%	CCN(CC)S(=O)(=O)c1ccc(N/N=C/c2cccnc2)nc1
-6%	CCn1cnc2sc(C(=O)Nc3ccc4c(c3)OCO4)c(C)c2c1=O
-18%	CC(C)COC(=O)N1C(COCc2ccccc2)CCC=CS1(=O)=O (stereo unspecified)
-1%	Cc1ccc(S(=O)(=O)N2CCc3cc(C(=O)NCCc4ccccc4)ccc32)cc1
7%	COc1ccc(NC(=O)CS(=O)CC(=O)NC2CCCc3ccccc32)cc1 (stereo unspecified)
-9%	COc1ccc(NC(=O)NC23CC4(C)CC(C)(CC(C)(C4)C2)C3)cc1OC
4%	COc1ccc(NC(=O)c2nnn(CC(=O)Nc3ccc4c(c3)OCO4)c2N)cc1OC
-5%	O=C(N/N=C/c1cc2c(c([N+](=O)[O-])c1)OCO2)c1ccncc1
1%	O=C(Nc1nccs1)Oc1ccccc1
-6%	Nn1cnnc1SCC(=O)N(C1CCCCC1)C1CCCCC1
-12%	COc1cc(S(=O)(=O)N2CCN(c3ccc(F)cc3)CC2)ccc1Cl
-2%	CC(NC(=O)C1CCCC1)C1CC2CCC1C2 (stereo unspecified)
16%	CC(C)Sc1nnc(NC(=O)CCc2ccccc2)s1
-2%	O=C(CNC(=O)c1ccc(F)cc1)NCc1ccc(S(=O)(=O)N2CCOCC2)cc1
2%	CCN(CC)c1ccc(NC(=O)c2cc(C)nc3c2c(C)nn3-c2ccc(C)cc2)c(C)c1

# 3 entries already listed, sorted by the value under VDR inhibitor, falling.
VDR inhibitor	compound
14%	CCS(=O)(=O)c1nc(S(=O)(=O)c2ccc(C)cc2)c(N2CCCC(C)C2)s1 (stereo unspecified)
7%	COc1ccc(NC(=O)CS(=O)CC(=O)NC2CCCc3ccccc32)cc1 (stereo unspecified)
-5%	Cc1cccc(-n2ncc3c(NCc4ccccc4)ncnc32)c1

# Further structures follow.
VDR inhibitor	compound
-12%	COCc1cc(C)nc(SCC(=O)Nc2cccc3cccnc23)c1C#N
6%	COc1ccc(Cl)cc1NC(=S)NCCc1c[nH]c2ccccc12
-6%	CCOC(=O)CN1C(=O)C(O)=C(C(C)=O)C1c1ccccc1 (stereo unspecified)
6%	Cc1ccnc2nc(C(=O)OCC(=O)N3CC(C)CC(C)C3)nn12 (stereo unspecified)
9%	CCN(C(=O)c1cc(Cl)ccc1OC)C1CCCCC1
2%	Cc1cc(C)c2c(c1)c1nnc(SCCN3CCCCC3)nc1n2C
5%	CC(C)(C)OCC(NC(=O)C(CC(N)=O)NC(=O)OC(C)(C)C)C(=O)OC(C)(C)C (stereo unspecified)
-10%	O=C(COc1coc(CN2CCN(c3ccccc3)CC2)cc1=O)NC1CCCC1
-29%	Cc1cc(C)c(NC(=O)CSc2nc(=O)n(CCN3CCOCC3)c3c2CCC3)c(C)c1
4%	Cc1cc(C)c(NC(=O)C2CCN(S(=O)(=O)c3c(C)noc3/C=C/c3ccccc3F)CC2)c(C)c1
2%	CCc1[nH]nc2c1C(c1ccc(C)o1)C(C#N)=C(N)O2 (stereo unspecified)
3%	O=c1c(O)c(-c2ccccc2O)oc2cc(O)cc(O)c12
-27%	CCOc1ccc(NC(=O)Nc2ccccc2SC)cc1
-3%	CC(=O)C1=C(C)Nc2ncnn2C1c1cccc(OCc2ccccc2)c1 (stereo unspecified)
-16%	Cc1cc(C(=O)OCC(=O)NC2CC2)ccc1[N+](=O)[O-]
-1%	COc1cc(OC)c(C=NNC(=S)NC23CC4CC(CC(C4)C2)C3)c(OC)c1
10%	Cn1c(COc2ccccc2)nnc1SCc1nc2ccccc2[nH]1
-22%	COc1cc(C(=O)N2CCN(c3cccc(C(F)(F)F)c3)CC2)ccc1OCC(=O)N1CCOCC1
7%	CCc1cc(=O)oc2cc(OCC(=O)OC)c(Cl)cc12
-2%	Cc1csc(NC(C)c2nc3cc(Cl)c(Cl)cc3n2CCCO)n1 (stereo unspecified)
16%	Cc1cccc(C)c1NC(=O)CN(C)C(=O)c1cccc(S(=O)(=O)N2CCN(C)CC2)c1
-23%	O=C1S/C(=C/c2ccccc2F)C(=O)N1CCN=C1NS(=O)(=O)c2ccccc21
?	O=C(c1ccc(-c2cccc(Cl)c2)o1)N1CCN(c2ccc([N+](=O)[O-])cc2)CC1
?	Cc1cccc(-n2c(C)c(-c3ccccc3)[nH]c2=S)c1
-15%	CN(Cc1ccc(OC(F)F)cc1)C(=O)C1CCN(S(=O)(=O)c2ccc3c(c2)OCCO3)CC1
8%	COc1ccc(S(=O)(=O)N2CCC(C(=O)NCC3CCCO3)CC2)cc1OC (stereo unspecified)
2%	COc1cccc(NC(=O)CSC2=Nc3ccccc3C3=NC(CC(=O)NCc4ccccc4OC)C(=O)N23)c1 (stereo unspecified)
16%	COc1ccc(C(=O)/C=C/Nc2ccc(S(=O)(=O)Nc3cc(OC)nc(OC)n3)cc2)c(OC)c1
-8%	COc1ccc(C2CC(C(F)(F)F)n3ncc(C(=O)NCc4cccnc4)c3N2)cc1OC (stereo unspecified)
?	CCOc1ccc(CNn2cnnc2)cc1
16%	O=S(=O)(c1ccc(N2CCCC2)nc1)N1CCOCC1
5%	CC(C)OCCCNC(=O)CN1C(=O)c2ccccc2Sc2ncccc21

# Exported as labelled records: 3 of the compounds above
CCOC(=O)CN1C(=O)C(O)=C(C(C)=O)C1c1ccccc1 (stereo unspecified)
  VDR inhibitor: -6%

Cc1ccnc2nc(C(=O)OCC(=O)N3CC(C)CC(C)C3)nn12 (stereo unspecified)
  VDR inhibitor: 6%

CCN(C(=O)c1cc(Cl)ccc1OC)C1CCCCC1
  VDR inhibitor: 9%

# Only part of the results is shown. The share of hits here may be higher or lower than overall.
